# HNF4A DNA FP = change in binding of human HNF4 alpha to DNA. HNF4a-FITC DNA binding, fluorescence polarization, 1 h. activity change, % at 10 µM. 360,000 tested, 0.3% active; in the data active = activity change above about 30%, passing the limit was not always enough;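 also: controls were the assay level and a saturating level of protein; the project sought stronger binding though the title names inhibitors; some compounds called inactive have numbers as strong as hits; positive values seem to mean higher polarization but the record does not say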
# Beta2AR agonist = activates human beta-2 adrenergic receptor causing internalization | P07550 | Am2.2-beta2AR cells, FAP receptor internalization, flow cytometry; reference of the scale not given here | response, % (no concentration beside the values) | 340,000 tested, 0.43% active;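 active = response above a set limit, near 3 SD of response in nonfluorescent compounds, cut at about 42% in these data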;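 also: stock transfer was 100 nL into about 11 µL; a reference agonist was the positive control; negative values mostly stem from fluorescent compounds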
# Target sequence (P07550 whole entry, looked up): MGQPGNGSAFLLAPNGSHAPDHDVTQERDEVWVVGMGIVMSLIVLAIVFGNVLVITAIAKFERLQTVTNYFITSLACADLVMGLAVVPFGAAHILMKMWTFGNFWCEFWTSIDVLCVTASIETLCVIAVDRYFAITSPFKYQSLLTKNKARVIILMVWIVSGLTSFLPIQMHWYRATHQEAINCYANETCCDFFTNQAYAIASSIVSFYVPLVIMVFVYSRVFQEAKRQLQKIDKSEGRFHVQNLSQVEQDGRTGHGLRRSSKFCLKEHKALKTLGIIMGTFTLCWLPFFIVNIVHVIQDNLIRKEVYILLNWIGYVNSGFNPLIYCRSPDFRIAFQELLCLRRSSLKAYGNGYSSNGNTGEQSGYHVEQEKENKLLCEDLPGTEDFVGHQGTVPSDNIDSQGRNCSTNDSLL
# E coli growth = E. coli growth inhibition. OD600 absorbance (concentration not given with the values). AID 1053175. Escherichia coli growth, OD600, 23 h; hits give low values. 330,000 tested, 0.21% active;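 active = OD600 absorbance below the run mean of sample wells minus 3.6 SD, in any replicate, cut at about 0.56 in these data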;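 also: stock transfer was 300 nL into about 60 µL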
# UCH37 inh = inhibitors of human deubiquitinating enzyme UCH37; Q9Y5K5; purified proteasome/UCH37, Ub-AMC cleavage fluorescence; inhibition, % (concentration not given with the values); 330,000 tested, 0.33% active; AID 588478;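 active = mean of two replicates above 20%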;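 also: 0% = compound-free wells with enzyme and 100% = wells lacking proteasome; stock transfer was 100 nL into about 20 µL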
# Target sequence (Q9Y5K5 whole entry, looked up): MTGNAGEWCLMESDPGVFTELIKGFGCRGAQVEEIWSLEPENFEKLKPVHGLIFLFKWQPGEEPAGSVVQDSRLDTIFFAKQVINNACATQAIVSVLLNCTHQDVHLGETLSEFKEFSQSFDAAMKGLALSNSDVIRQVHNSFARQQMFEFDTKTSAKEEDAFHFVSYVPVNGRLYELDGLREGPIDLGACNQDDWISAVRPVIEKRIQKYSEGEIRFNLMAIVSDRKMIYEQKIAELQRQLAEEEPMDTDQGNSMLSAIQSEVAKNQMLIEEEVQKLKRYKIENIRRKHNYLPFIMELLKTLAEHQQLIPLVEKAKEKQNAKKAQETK
#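 Material: human UCH37 enzyme supplied as purified proteasome complex. Measure: % inhibition of Ub-AMC cleavage fluorescence. Medium: pH 7.4 Tris-HCl (50 mM) with ovalbumin, ATP-MgCl2, DTT. Times: 30 min preincubation with enzyme, 25 min cleavage at room temperature. Detection: AMC fluorescence intensity at 355/460 nm.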
# LANA-H2A inh = blocks KSHV LANA binding to histone H2A/H2B; cell-free LANA-H2A/H2B peptide, fluorescence polarization; AID 2629; 320,000 tested, 0.6% active; Q9QR71; inhibition, % (test concentration not listed); in the data active = inhibition mostly above about 10%, no sharp cut-off; inactive = mostly below about 6.7%;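 also: stock transfer was 7.5 nL into about 10 µL; 0% = median of vehicle wells and 100% = median of positive control wells; one replicate is shown; the record names a cut of 25% in any replicate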
# A1 inh = inhibitors of the anti-apoptotic protein A1, read as caspase activation; MEF A1-2A-BIM cells, Caspase-Glo 3/7 luminescence, 3 h; percent of clofoctol response, vehicle zero; caspase activation, % (no concentration beside the values); 330,000 tested, 0.066% active; AID 2462;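 active = over half of replicate activation scores above 10%, or exactly half above 10 with the replicate mean above 10; inconclusive = replicate mean below 10 yet half the replicates above 10; inactive = over half of replicates below 10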;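 also: wells of about 30 µL received 50 nL stock; many hits fall short of the cut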
# Vif A3G = inhibitors of Vif binding to APOBEC3G peptide, primary screen, biochemical, TR-FRET, GST-Vif 1-94, biotin-A3G peptide, dose response retest (AID 1117319) | TR-FRET GST-Vif / biotin-A3G peptide binding; higher % means a stronger effect; test concentration not given here; strong numbers were not always called active | one-dose inhibition, %; IC50 in µM for titrated hits | 260,000 tested, 0.57% active;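 active = above the screen mean plus three standard deviations and confirmed in dose response; inconclusive = results disagree or hit not tested in dose response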;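 also: Vif residues 1-94 fused to GST binding biotinylated APOBEC3G peptide 110-148; 0% = full assay without inhibitor and 100% = GST in place of GST-Vif; retest series ran down from 100 µM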
# Numbers without * were called inactive; ? = inconclusive; . = not tested or not shown; & = joins results of further samples.
SMILES,HNF4A DNA FP,Beta2AR agonist,E coli growth,UCH37 inh,LANA-H2A inh,A1 inh,Vif A3G
CCSc1nnc(NC(=O)CSc2nc3c(c(=O)n2CCOC)SC(C)C3)s1 (stereo not drawn),3.1,-9,0.75,6.0,6.4,1.7,.
CC(=O)NNc1cc(C)nc(N)n1,-1.8,-4,0.67,0.6,-1.0,0.5,8%
C=CC[C@H]1CC(Cc2ccccc2)=C[C@H](CC=C)N1,1.1,10,0.7,-0.3,1.5,1.0,6%
NC(=O)CC(NC(=O)Cc1ccc(Br)cc1)c1ccc(NC2CCCCCCC2)c([N+](=O)[O-])c1 (stereo not drawn),44,9,0.69,-0.9,.,.,.
O=C(CCN1C(=O)c2ccncc2C1=O)Nc1ccc(F)cc1,-0.8,-4,0.72,3.8,-2.6,0.7,2%
COc1ccc(-c2cc3cc(OC)c(OC)cc3cn2)cc1,3.5,0,0.68,-5.1,-0.7,-5.4,.
O=C(CN1C(=O)NC2(CCCC2)C1=O)Nc1cc(C(F)(F)F)ccc1N1CCCCC1,-5.6,1,0.64,1.0,2.2,-0.2,7%
CCOc1cc2c3c(c1)C(C)=CC(C)(C)N3C(=O)C2=O,2.9,17,.,.,13*,1.1,-11%
Cc1cc(N2CCCCC2)n2ncc(-c3ccccc3)c2n1,1.8,-11,0.78,-32,1.4,-2.6,2%
CCn1c(/C=N/c2nc3ccccc3n2C)nc2ccccc21,-2.9,-4,.,.,-0.2,-0.3,24%
O=C(c1ccc(Cl)cc1)c1cc([N+](=O)[O-])ccc1N1CCOCC1,2.2,17,0.69,4.6,4.5,0.6,5%
O=C(Cc1ccc(NC2=NC3CS(=O)(=O)CC3S2)cc1)NCCc1ccccc1 (stereo not drawn),1.7,12,0.72,0.5,1.5,0.5,.
COc1cc(Cl)ccc1OCc1cc(C(=O)N2CCCCCC2)no1,-1.3,-11,0.68,6.2,1.1,0.6,.
O=C1C(Cl)=C(Nc2ccccc2O)C(=O)N1c1ccccc1,1.2,-23,0.7,3.8,2.8,-4.8,11%
O=C(CCC(=O)N1CCN(C2CCCC2)CC1)Nc1nnc(C(F)(F)F)s1,0.2,1,0.76,0.3,-1.4,0.4,0%
CCOc1ccc(-n2ccnc2SCC(=O)Nc2cc(C)on2)cc1,2.9,5,0.72,2.1,3.5,0.5,-1%
Cc1cc(C)nc(NC(=S)Nc2ccc(Br)cc2Cl)c1,-1.2,3,0.65,0.9,4.2,-0.9,5%
CCCc1nc(N)sc1C(=O)OCC,-0.3,-3,0.79,2.6,3.8,0.2,1%
CN(C)CCCNC(=S)NCC(c1ccc(Cl)cc1Cl)c1c[nH]c2ccccc12 (stereo not drawn),-1.1,47*,.,.,4.9,0.2,21%
CC(C)n1cnc2cc(NCc3ccccn3)ccc21,3.1,-6,0.65,-1.2,-0.6,-0.3,14%
COc1ccc(-c2c3c(=O)n(C)c(=O)n(C)c3cn2-c2ccc(O)cc2)cc1,-9.3,3,0.67,-49,1.8,-0.6,?
COCC(=O)N1CCC(Oc2ccc(C(=O)NC3Cc4ccccc4C3)cc2)CC1,-2.4,8,0.66,-1.9,0.0,-0.7,.
C[C@H](CO)N1C[C@H](C)[C@@H](CN(C)C(=O)Nc2ccccc2)Oc2ccc(NC(=O)Cn3cnnn3)cc2C1=O,-1.0,0,0.74,2.2,3.3,0.4,-1%
CCOC(=O)c1c(C)[nH]c(C(=O)COC(=O)CCNS(=O)(=O)c2ccc(NC(C)=O)cc2)c1C,0.3,-1,0.67,-2.6,-1.2,2.1,.
Cc1ccc(C)c(NC(=O)C(CC(=O)O)Cc2ccccc2)c1 (stereo not drawn),2.4,10,0.62,2.8,0.8,0.2,.
O=C(CC1(O)C(=O)N(Cc2ccccc2)c2ccccc21)c1ccncc1 (stereo not drawn),1.8,-1,0.74,-3.1,5.5,0.1,1%
COc1ccccc1NC(=O)CCS(=O)(=O)c1ccc2c(c1)NC(=O)C(C)S2 (stereo not drawn),-1.1,-3,0.7,1.4,-2.7,-0.9,.
CCOc1ccc(C(=O)CCC(=O)NN2C(=O)NC3(CCCCC3)C2=O)cc1,4.1,6,0.64,4.6,-2.8,-1.2,-4%
CCn1nnnc1SCC(=O)Nc1nc2ccccc2s1,3.4,1,0.7,0.1,1.3,0.6,.
COc1ccc(/C=C/C(=O)O)cc1Cl,2.9,8,0.68,1.6,-0.7,0.7,-1%
O=C(CSc1ncn[nH]1)Nc1ccc([N+](=O)[O-])cc1Br,-0.4,-4,0.7,5.5,1.3,-0.8,.
CCN(CC)CCOC(=O)c1c(C)oc2ccc(O)cc12,-3.0,-3,0.7,0.0,1.0,0.0,11%
CC(OC(=O)C1CCN(c2ccc(C(F)(F)F)cn2)CC1)C(=O)Nc1cccc([N+](=O)[O-])c1 (stereo not drawn),-0.1,2,0.66,2.4,1.6,-0.7,-17%
CCC(=O)N1N=C(c2ccc(Cl)cc2)CC1c1ccco1 (stereo not drawn),1.8,2,0.66,3.5,-2.4,0.1,-4%
COc1cc(OC)cc(-c2nnc(SCC(=O)N3c4ccccc4Sc4ccccc43)o2)c1,-4.0,12,0.74,4.1,6.2,-0.3,-90%
O=C1c2ccccc2C(=O)N1CCCC(=O)N1CCCc2ccccc21,1.9,-1,0.72,1.9,-0.9,0.6,6%
CC(=O)Nc1ccc(OCC(=O)NC(C)c2ccc(F)cc2)cc1 (stereo not drawn),2.5,-1,0.67,2.6,6.1,0.8,-13%
CCc1ccc(NC(=O)CC2C(=O)NCCN2C(=S)Nc2ccccc2)cc1 (stereo not drawn),1.6,5,0.66,1.4,0.1,1.6,0%
Cc1c(C#N)c(NC(=O)CCl)n(Cc2ccc(F)cc2)c1C,2.6,16,0.71,-1.6,1.0,0.6,27%
O=C(Nc1ccccc1Cl)N1CCN(c2ncccn2)CC1,-0.7,-5,0.73,-3.5,-1.4,0.2,3%
COc1cccc(-c2cc(C(=O)Nc3c(C)nn(Cc4ccccc4)c3C)no2)c1,0.4,-1,0.69,2.0,1.1,-0.4,1%&-8%
NC(=S)N/N=C/c1ccc(-c2ccccc2)o1,10,1,.,.,-1.4,-0.1,-10%
Cn1c(NN)nc2sc3c(c2c1=O)CC(C)(C)OC3,1.1,-6,0.73,5.2,1.3,-0.1,12%
CN1CCN(c2ccc(NC(=O)COc3ccc(Cl)cc3Cl)cc2)CC1,-0.8,-16,0.67,7.2,4.7,0.3,23%
CN(Cc1nc2ccccc2c(=O)[nH]1)Cc1nc2ccsc2c(=O)[nH]1,1.7,-5,0.7,0.5,-0.4,0.2,-6%
Cc1ccc(OS(=O)(=O)c2ccc(-c3csc(C)n3)s2)c(C)c1,1.0,-5,0.67,5.0,2.9,0.9,-10%
COc1ccc(S(=O)(=O)N=Nc2c(O)[nH]c3ccccc23)cc1,-6.3,-5,0.68,4.8,-3.1,1.6,22%
CCOCC(=O)Nc1nnc(Cc2ccc(OC)c(OC)c2)s1,0.1,-2,0.67,1.9,-0.1,-0.6,0%

# Structures listed above shown as hits in Beta2AR agonist:
mol,HNF4A DNA FP,Beta2AR agonist,UCH37 inh,LANA-H2A inh,Vif A3G
CN(C)CCCNC(=S)NCC(c1ccc(Cl)cc1Cl)c1c[nH]c2ccccc12 (stereo not drawn),-1.1,47*,.,4.9,21%

# Following part.
SMILES,HNF4A DNA FP,Beta2AR agonist,E coli growth,UCH37 inh,LANA-H2A inh,A1 inh,Vif A3G
CC(C)CNC(=O)COC(=O)CNC(=O)c1cc(Cl)cc([N+](=O)[O-])c1,0.3,-4,0.64,3.0,.,1.2,.
CN1CCCCc2c1[nH]c1ccccc1c2=O,1.5,-5,0.76,-5.6,2.1,-0.7,2%
Cc1ccc(OCC(=O)n2nc(C)cc2C)c(C)c1,1.3,3,0.67,5.0,-6.8,-0.1,4%
COc1ccc(COC(=O)CN2C(=O)NC3(CCCC3)C2=O)cc1F,-4.9,-1,0.62,1.0,0.2,0.0,-2%
CC(/C=C/c1ccccc1)=N\NC(=O)c1cc(C)nc2ccccc12,-0.2,-3,.,.,-2.4,-0.3,-10%
CN(C)CCN(Cc1ccco1)c1ccccn1,3.1,-9,0.71,3.3,.,.,-9%
Cc1c(C(=O)N2CCN(C(=O)c3ccco3)CC2)oc2c(Cl)cccc12,4.7,5,0.63,1.1,-6.0,0.8,1%
COc1ccc(C(=O)Nc2nnc(SCC(=O)NC3CC3)s2)cc1,1.3,9,0.7,1.9,3.5,-0.6,.
COc1cccc2cc(C(=O)OCc3ccccc3)c(=O)oc12,3.6,-5,0.65,2.9,11,-0.2,.
Cc1cc(=O)oc2cc(Nc3ccccc3)ccc12,1.7,-9,0.65,-29,.,0.8,.
CCc1cc(=O)oc2c(C)c(OCC(=O)N3CCC(C(=O)O)CC3)ccc12,0.8,-5,0.72,-54,8.7,-0.2,.
COc1cc(C(=O)NCC(c2cccnc2)N2CCN(c3ccccc3)CC2)cc(OC)c1OC (stereo not drawn),0.4,0,0.74,0.5,-4.9,-0.2,?

# Some of these compounds in order of their number in UCH37 inh, lowest first:
compound	HNF4A DNA FP	Beta2AR agonist	UCH37 inh	LANA-H2A inh	Vif A3G
Cc1cc(=O)oc2cc(Nc3ccccc3)ccc12	1.7	-9	-29	.	.
COc1cccc2cc(C(=O)OCc3ccccc3)c(=O)oc12	3.6	-5	2.9	11	.
CC(C)CNC(=O)COC(=O)CNC(=O)c1cc(Cl)cc([N+](=O)[O-])c1	0.3	-4	3.0	.	.

# (more compounds)
SMILES,HNF4A DNA FP,Beta2AR agonist,E coli growth,UCH37 inh,LANA-H2A inh,A1 inh,Vif A3G
N#C/C(=C\c1cccs1)C(=O)c1ccccc1,-0.7,11,0.69,3.0,2.6,0.8,-3%
CCc1cc(Cn2nc(-c3ccccc3C)cc2C(=O)O)on1,-1.3,6,0.66,1.9,-5.0,-1.1,.
CN1CCN(C(=O)c2ccc(N(Cc3ccccc3Cl)S(C)(=O)=O)cc2)CC1,-1.2,2,0.76,0.9,-3.8,-0.4,5%
C[C@H](NC(=O)c1nc[nH]c1C(=O)N1CCN(c2ccccc2)CC1)C(=O)OC(C)(C)C,-0.5,-2,.,-0.5,2.1,-0.1,.
CCN(CC)CCN1c2ccccc2Sc2ccccc21,3.5,8,0.68,0.7,5.3,-0.3,.
CCOC(=O)C1=C(N)Oc2cc(C)n(CCc3ccc(OC)c(OC)c3)c(=O)c2C1c1cccnc1 (stereo not drawn),-3.2,9,0.73,-2.7,-0.4,0.3,3%
CCOC(=O)c1sc2nc(CSc3ccccc3)nc(N3CCCN(C)CC3)c2c1C,4.4,12,0.64,4.3,-4.7,0.5,?
Cc1cccc(C)c1OCCCn1ccnc1,-3.9,4,0.65,0.6,-9.0,-0.5,.
CCCCCCCCCn1c2c(c(=N)c3c1CCC3)CCC2,-0.2,6,0.49*,6.3,-0.7,-1.2,6%
CCCCNC(=S)NCC(c1ccccc1)c1c[nH]c2ccccc12 (stereo not drawn),-0.1,6,0.65,4.0,-0.3,-0.6,-2%
C=CCN(C)NC(=O)Nc1ccccc1,-2.0,4,0.73,1.4,4.7,0.8,10%
CCSc1nnc(NC(=O)CSc2sc3c(O)cc(=O)[nH]c3c2C#N)s1,-33,19,0.66,6.1,2.3,0.2,.
COc1ccc(CN2CCN(C(=O)c3cccs3)CC2)c(OC)c1OC,-1.9,9,0.68,0.5,2.0,0.6,?
CCOc1ccc(CCNC(=O)Cn2c(=O)oc3ccccc32)cc1OCC,1.3,1,0.73,3.8,-0.7,0.7,5%
